Compound activity deposited in PubChem BioAssay by National Center for Advancing Translational Sciences (NCATS).
PINK1 expr mod – modulators of PINK1 expression. PINK1 immunofluorescence, high-content cytometry, 24 h. Potency, µM (titrated, usually from 76.6 µM), for inactives: at the highest dose activation (PINK1 increase), most hits filed as activators. 410,000 tested, 0.2% active; active = well fitted activation curve with a large enough effect; inconclusive = small, poorly fitted or top-dose-only effect; inactive = flat fitted curve, though single readings scatter; cell line not stated here;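 also: potency is read from the fitted curve at half-maximal effect; % of control where 0% means no effect; nearly all actives have a fitted effect of over 65% in size; a mitochondrial uncoupler was the plate control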
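Stable cell line treated 24 h with compounds at 5 concentrations (CCCP controls), then fixed and immunostained for PINK1 plus nuclear and cell stains; PINK1 immunofluorescence quantified by laser-scanning microplate cytometry.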
D2 agonist – human D2 receptor agonism in beta-arrestin assay; DiscoveRx PathHunter D2 beta-arrestin, luminescence, 90 min; 100% = 57 uM dopamine signal; 360,000 tested, 0.084% active; activation, % (no concentration beside the values); P14416; in the data active = activation above about 40%; inconclusive = about 15% to 40%; inactive = below about 15%; also: compound concentration not given in the record; the text of the record calls up to 30% inactive
Target sequence (P14416 whole entry, looked up): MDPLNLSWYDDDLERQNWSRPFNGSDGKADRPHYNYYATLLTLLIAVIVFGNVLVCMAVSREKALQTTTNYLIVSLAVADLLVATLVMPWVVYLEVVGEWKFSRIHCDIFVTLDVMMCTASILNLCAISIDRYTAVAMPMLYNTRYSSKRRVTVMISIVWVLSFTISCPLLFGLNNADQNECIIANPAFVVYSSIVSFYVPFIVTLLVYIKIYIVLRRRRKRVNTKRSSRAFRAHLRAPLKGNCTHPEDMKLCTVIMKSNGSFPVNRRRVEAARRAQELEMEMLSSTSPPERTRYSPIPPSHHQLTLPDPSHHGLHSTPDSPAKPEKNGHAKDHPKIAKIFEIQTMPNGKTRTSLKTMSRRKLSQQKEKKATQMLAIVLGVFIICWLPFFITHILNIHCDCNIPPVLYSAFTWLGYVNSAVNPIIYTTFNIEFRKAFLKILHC
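Agonist mode: compounds alone added to overnight-plated D2 PathHunter cells for 90 min at 37 C, with 57 uM final dopamine (EC100) defining full response. Beta-arrestin recruitment detected by chemiluminescent reagent, read after 1 h at ambient temperature.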
D2 potentiator – potentiates the human D2 dopamine receptor allosterically | P14416 | DiscoveRx D2 beta-arrestin cells, luminescence, 90 min; 100% = 57 uM dopamine signal | potentiation, % (concentration not given with the values) | 360,000 tested, 0.23% active | AID 624464; active = potentiation of 50% or more; inconclusive = 30% to 50%; inactive = 30% or less;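 also: compound concentration not given in the record; tested on top of an EC20 dose of dopamine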
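PathHunter beta-arrestin assay in DiscoveRx D2 cells. Compounds were added with an EC20 of dopamine (50 nM final) for 90 min at 37 deg C. Luminescence was read 1 h after detection reagent, with 57 uM dopamine as the EC100 control.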
Six1-Eya2 blk – inhibitors of human Six1/Eya2 interaction; AlphaScreen GST-Six1/His-Eya2 binding, biochemical; hits give low values; control for the full effect not named in the record; activity change, % (concentration not given with the values); 360,000 tested, 0.56% active; AID 651725; in the data active = activity change below about -65%; inconclusive = about -30% to -65%; inactive = above about -30%; also: % is scaled to controls: 0 for no effect and ±100 for the full control effect
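Compounds are tested against tagged Six1 and Eya2 proteins bridged by glutathione donor and nickel acceptor beads; after a one-hour incubation at 37 °C without light, AlphaScreen emission is recorded.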
TRPML1 ag – agonists of human TRPML1 channel; Q9GZU1; activation, % (test concentration not listed); TRPML1-expressing cells, Ca2+ dye fluorescence, FDSS; host cell line not named in the record; reference of the full effect not given here; 410,000 tested, 0.12% active; AID 624414; in the data active = activation above about 50%; inconclusive = about 30% to 50%; inactive = below about 30%; also: 0% is about no effect; the text of the record puts the active cut at 80%
Target sequence (Q9GZU1 whole entry, looked up): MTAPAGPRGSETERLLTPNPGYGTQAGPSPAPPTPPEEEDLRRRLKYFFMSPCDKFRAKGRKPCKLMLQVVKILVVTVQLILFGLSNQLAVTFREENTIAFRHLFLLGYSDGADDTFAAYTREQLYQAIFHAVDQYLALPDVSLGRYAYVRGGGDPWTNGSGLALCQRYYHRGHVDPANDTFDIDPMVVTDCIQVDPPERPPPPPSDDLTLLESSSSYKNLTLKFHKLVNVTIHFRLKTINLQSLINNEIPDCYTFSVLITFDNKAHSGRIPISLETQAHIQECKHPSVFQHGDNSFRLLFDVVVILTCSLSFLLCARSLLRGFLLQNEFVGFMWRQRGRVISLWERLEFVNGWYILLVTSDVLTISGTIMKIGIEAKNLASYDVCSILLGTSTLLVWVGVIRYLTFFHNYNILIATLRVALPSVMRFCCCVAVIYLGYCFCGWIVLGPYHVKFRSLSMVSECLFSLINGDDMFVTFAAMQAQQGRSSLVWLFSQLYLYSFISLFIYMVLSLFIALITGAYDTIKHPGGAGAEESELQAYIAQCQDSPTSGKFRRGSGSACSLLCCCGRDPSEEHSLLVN
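Tet-induced TRPML1-DL cells, 1,500 per well, cultured overnight, were loaded with a no-wash Ca2+ dye for 45–90 min. Calcium fluorescence was recorded on the FDSS for 110 s after compound addition, before the EC80 agonist (4 uM 54-4) was added.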
TRPML1 blocker – human mucolipin-1 channel inhibition | activity change, negative = inhibition, % (no concentration beside the values) | TRPML1-inducible cells, Ca2+ dye fluorescence, FDSS; hits give low values; inhibition of EC80 agonist-evoked calcium signal | 390,000 tested, 0.02% active | AID 624415; in the data active means activity change below about -50%; inconclusive means about -30% to -50%; inactive means above about -30%;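 also: stimulus is agonist 54-4 at its EC80 concentration; % is scaled to controls: 0 for no effect and ±100 for the full control effect; compound concentration not given in the record; the text of the record puts the active cut at -80%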
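Tet-induced TRPML1-DL cells loaded with Ca8 no-wash calcium dye were read kinetically on FDSS. Compound addition was followed by EC80 agonist 54-4 (4 uM final); inhibition was read over 110 s.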
Numbers without * were called inactive; ? = inconclusive; · = not tested or not shown; & = joins results of further samples; [ ] = another dose, or the depositor's remark. An excerpt, so the mix of outcomes need not match the whole.

SMILES	PINK1 expr mod	D2 agonist	D2 potentiator	Six1-Eya2 blk	TRPML1 ag	TRPML1 blocker
CC(=Nc1ccc(F)cc1)c1c(O)n(C)c(=O)[nH]c1=O	-0.6%	-0.4	-1	-7	0.8	-8
COc1cccc(CNCCc2ccc3c(c2)OCO3)c1OC	1.5%	1.4	2	-3	·	·
Cc1ccnc(-n2c(-c3ccco3)nc3ccccc3c2=O)c1	0.4%[38.3 µM]	-0.9	1	1	3.4	4
O=[N+]([O-])c1ccccc1CN1CC=C(c2ccc(F)cc2)CC1	4.2%	-5.1	-6	-18	-0.3	-18
O=C(CSC1c2ccccc2-c2ccccc21)N/N=C/c1ccccc1	1.9%[38.3 µM]	6.2	0	19	2.5	-6
OC1(c2ccc(F)cc2)CC2CCC(C1)N2Cc1nnnn1C1CCCC1 (stereo not given)	0.7%[38.3 µM]	0.7	-21	5	0.2	17
Cc1ccccc1CN1C(=O)CN=C(c2ccccc2)c2cc(Cl)ccc21	3.5%	·	·	·	3.5	20
CCCCCCn1c(O)c(C=NCCN2CCCCC2)c(=O)[nH]c1=O	-0.3%	-3.4	-2	1	-0.9	-4
CN(C)c1nc(-c2ccccc2)[n+](C)s1	-5.2%	9.2	-4	7	0.3	4
c1ccc(CCCN2CCN(CCOC(c3ccccc3)c3ccccc3)CC2)cc1	-1.1%	3.5	-26	-8	0.8	-3
CN(C(=O)Oc1ccc([N+](=O)[O-])cc1)c1ccccc1	-2.4%	0.4	-3	4	0.7	3
O=[N+]([O-])c1ccccc1CNCCc1c[nH]c2ccccc12	2.5%	1.6	-20	-6	1.6	-3
N#CC1C(C#N)C2CCC1C1C2N1c1ccccc1 (stereo not given)	0.1%	-0.7	-2	-1	0.3	-10
COC(=O)C[C@]1(C(=O)OC)CN(C#N)N(c2ccc(Cl)cc2)C12c1ccccc1-c1ccccc12	-1.8%	-1.4	12	7	2.7	6
Cc1ccc(CN2CCCC(C(=O)c3sccc3C)C2)o1 (stereo not given)	5.4%	-2.4	-17	-11	1.5	9
C[C@H]1CC[C@@H]2N(C1)C[C@H]1[C@@H]3C[C@H]4[C@@H](CC(=O)[C@H]5C[C@@H](O)CC[C@@]54C)[C@@H]3CC[C@H]1[C@]2(C)O	-0.9%	-5.4	-4	5	0.9	-22
CC(C)N(CC(O)c1cccc([N+](=O)[O-])c1)C(C)C (stereo not given)	-0.9%[38.3 µM]	-4.5	0	6	-0.4	19
N/C(=N\N=C\c1ccc(O)cc1O)N[N+](=O)[O-]	0.4%	-2.0	3	-74*	3.3	11
CC(=O)O[C@@H]1CC[C@]2(C)C3CC[C@@]4(C)C(C[C@@H](O)[C@@H]4O)C3[C@@H](OC(C)=O)C[C@H]2C1 (stereo not given in full)	4.3%	1.7	2	-1	-0.1	8
COCCCn1c(N)c(C(=O)OC(C)COC)c2nc3ccccc3nc21 (stereo not given)	3.9%	-3.6	-11	-20	0.1	2

Random excerpt: 2 compounds from above
SMILES	PINK1 expr mod	D2 agonist	D2 potentiator	Six1-Eya2 blk	TRPML1 ag	TRPML1 blocker
COc1cccc(CNCCc2ccc3c(c2)OCO3)c1OC	1.5%	1.4	2	-3	·	·
CN(C(=O)Oc1ccc([N+](=O)[O-])cc1)c1ccccc1	-2.4%	0.4	-3	4	0.7	3

More records:
SMILES	PINK1 expr mod	D2 agonist	D2 potentiator	Six1-Eya2 blk	TRPML1 ag	TRPML1 blocker
CC1CN1P(=O)(Oc1ccc2ccccc2c1)N1CC1C (stereo not given)	-2.6%	-0.4	·	7	0.3	7
CCCCn1c(=O)c(C(=O)Nc2ccccn2)c(O)c2ccccc21	1.0%	-1.1	-1	-4	0.6	35
O=C1CN=C(c2ccc(Br)cc2)c2c(sc3c2CCCC3)N1CCN1CCCCC1	2.2%	-0.5	-13	-24	0.9	48
Nc1ccc(C2(c3ccc(N)cc3)CCCCC2)cc1	-1.9%	-3.3	-7	-3	1.0	-11
NP(=O)(OCCCc1ccccc1)Oc1ccccc1Cl (stereo not given)	-0.6%	-4.2	-14	2	-0.6	1
O=C(Cc1cc(=O)oc2cc(O)ccc12)NN=Cc1ccc(N(CCCl)CCCl)cc1	-1.7%	5.5	5	-27	0.8	-8
CCOC(=O)C(O)(c1ccc(NC(=S)NC(=O)c2ccc(Cl)cc2Cl)cc1)C(F)(F)F (stereo not given)	?	-7.0	-19	0	18	-4
CC(C)CC(=O)Nc1ccc(S(=O)(=O)N2CC3CC(C2)c2cccc(=O)n2C3)cc1 (stereo not given)	0.3%	-6.9	-5	-2	0.1	24
COc1cc(CN2CC3CC(C2)c2cccc(=O)n2C3)cc(OC)c1OC (stereo not given)	-1.7%[38.3 µM]	0.6	0	2	1.9	15
O=C(NCC1=C(c2cccc3ccccc23)C[C@@H]2CC[C@H]1N2Cc1ccco1)c1ccncc1	-1.2%	-3.0	-14	-2	-0.6	-7
O=C1NCN(c2ccccc2)C12CCN(C(c1cc3ccccc3o1)c1nnnn1-c1ccc3c(c1)OCCO3)CC2 (stereo not given)	-0.9%	-1.7	-9	-22	-0.6	·
CCCC(C)C1(CC)C(=O)NC(=Nc2ccc(OC)cc2)NC1=O (stereo not given)	1.9%	0.6	-3	3	-0.2	7
C=CCOC(=O)C1=C(C)OC(N)=C(C#N)[C@@]12C(=O)N(CC(N)=O)c1ccccc12	-1.6%	5.9	?	0	-0.1	31
CCSc1nnc(C(N)Cc2ccccc2)o1 (stereo not given)	0.5%	-0.2	-7	7	-0.1	12
NNCc1cccc(O)c1	1.0%	1.7	-9	7	0.3	2
C=CCn1c(O)c(C(C)=Nc2cc(OC)ccc2OC)c(=O)[nH]c1=O	7.2%	-1.1	-7	-8	-0.4	14
CC12CCCCC1=NC(c1ccc(Br)cc1)N2O (stereo not given)	1.3%[38.3 µM]	-1.4	-11	3	1.8	-10
CCCCn1c(=O)c(C(=O)Nc2cnccn2)c(O)c2ccccc21	-2.5%	-4.5	20	6	-0.4	-7
Oc1ccc2c3c1OC1[C@H](O)CC[C@@]4(O)[C@@H](C2)N(CC2CC2)CC[C@]314 (stereo not given in full)	-0.4%&-0.7%	3.3&2.0	-2&-9	-3&-1	-0.4&0.1	8&34
Cc1cc(OCC(=O)N2CCC(C(N)=O)CC2)c2c3c(c(=O)oc2c1)CCCC3	-0.4%	4.7	-1	2	·	·

Molecules listed so far containing a nitro group on carbon (4):
SMILES	PINK1 expr mod	D2 agonist	D2 potentiator	Six1-Eya2 blk	TRPML1 ag	TRPML1 blocker
O=[N+]([O-])c1ccccc1CN1CC=C(c2ccc(F)cc2)CC1	4.2%	-5.1	-6	-18	-0.3	-18
CN(C(=O)Oc1ccc([N+](=O)[O-])cc1)c1ccccc1	-2.4%	0.4	-3	4	0.7	3
O=[N+]([O-])c1ccccc1CNCCc1c[nH]c2ccccc12	2.5%	1.6	-20	-6	1.6	-3
CC(C)N(CC(O)c1cccc([N+](=O)[O-])c1)C(C)C (stereo not given)	-0.9%[38.3 µM]	-4.5	0	6	-0.4	19

Other structures follow.
SMILES	PINK1 expr mod	D2 agonist	D2 potentiator	Six1-Eya2 blk	TRPML1 ag	TRPML1 blocker
CCC(=NCCO)c1c(O)n(C2CCCCC2)c(=O)[nH]c1=O	-0.3%	-2.0	23	0	-0.3	6
CCCCN1C(=O)NC(=O)/C(=C/c2cnc(SC)nc2)C1=O	1.9%	-3.3	7	3	-0.4	4
CCC(=O)OC(Cc1ccccc1)(c1ccccc1)[C@H](C)CN(C)C (stereo not given in full)	-0.3%	5.4	-10	3	-0.2	-1
O=C1NC(=O)C(=Cc2ccc(Sc3ccccc3)o2)C(=O)N1	0.7%	0.4	-16	-3	0.0	5
CCCCN1CCC(C#N)(Nc2ccccc2)CC1	3.2%	1.1	5	8	-0.4	-5
CC1CCC(N(C)C2CCN(C)CC2)CC1 (stereo not given)	-0.5%	-3.7	-2	0	-0.5	-7
Cc1ccc(-c2nc3ccccc3c(=O)n2-c2nccs2)cc1	1.0%[38.3 µM]	-0.7	-3	7	0.5	12
COc1cc(C(=O)NC(=S)N2C[C@H]3C[C@H](C2)c2cccc(=O)n2C3)cc(OC)c1OC	1.2%	-0.4	-4	6	0.2	7
Cn1c(O)c(C=NC2CC3CCC2(C)C3(C)C)c(=O)[nH]c1=O (stereo not given)	1.4%	-1.7	-13	6	-0.3	14
COc1ccc(CC(C)NCCC(c2ccccc2)c2ccccc2)cc1 (stereo not given)	-0.8%	-14	-84	3	·	·
C=CCn1c(O)c(C(CC)=NCc2ccc3c(c2)OCO3)c(=O)[nH]c1=O	3.4%	0.5	2	-1	1.9	28
N#Cc1ccccc1Cn1cc(C(=O)c2cccs2)c2ccccc21	6.0%	-2.5	4	-12	1.0	-7
COc1cc(CC(C)N)c(OC)cc1I (stereo not given)	1.5%	-6.1	-13	-2	0.6	4
C[C@]12CCC3C(C1CCC2=O)[C@H](O)C[C@H]1C[C@@H](O)CC[C@]31C (stereo not given in full)	-1.3%	-10.0	-9	3	0.4	1
OC1/C(=C/c2ccccc2F)N2CCC1CC2 (stereo not given)	1.9%	-9.2	-7	11	-0.8	-13
O=C(CN1CCN(c2ccccc2F)CC1)Nc1cccnc1Cl	0.2%	-2.3	-4	-3	0.1	-6
COc1ccc2c(c1)C1OCCNC1CC2 (stereo not given)	0.6%	1.0	-11	0	-0.4	·
CCC(=NCCC(c1ccccc1)c1ccccc1)c1c(O)n(C)c(=O)n(C)c1=O	6.0%	-0.3	-14	10	0.2	-2
C[N+](C)(C)CC#CCOC(=O)Nc1cccc(Cl)c1	0.3%	-1.6	-20	-3	-0.3	-4
COc1ccc(-n2nc(C(=O)NCC(=O)N3CCC4(CC3)OCCO4)c3ccccc3c2=O)cc1Cl	-1.4%	3.8	0	1	-0.4	13
CC(=O)Nc1cccc([As](=O)(c2cccc(NC(C)=O)c2)c2cccc(NC(C)=O)c2)c1	-1.5%	-5.4	-8	-7	-0.6	-10
C[N+]1(C)CCOC(O)(c2ccc(-c3ccc(C4(O)C[N+](C)(C)CCO4)cc3)cc2)C1 (stereo not given)	-0.3%	-2.4	-6	4	0.6	37
CN(C(=O)COC(=O)c1cn(C)c2ccccc12)C1CCCCC1	2.7%	-5.3	-1	3	1.1	21
CCOC(=O)c1cc2cc(OC)ccc2n1C1CCN(Cc2ccccc2)CC1	12%	·	·	-8	-0.3	·
CN1CCN(c2ccc(S(C)(=O)=O)cc2[N+](=O)[O-])CC1	-0.1%	-1.9	-8	2	-0.6	19
COc1ccc(OC)c(N2C(=O)NC(=O)/C(=C\c3ccc([N+](=O)[O-])s3)C2=O)c1	6.1%	5.1	20	-67*	13	-10
COc1ccccc1N1CCN(CCc2ccccc2)CC1	3.4%	0.0	-7	-13	-1.5	3
Cc1ccc(NC(=O)Cn2cc(C(=O)c3ccccc3)c3ccccc32)cc1	-1.5%	·	·	·	3.6	?
Clc1ccc2sc(C3CCNCC3)nc2c1	1.5%	0.3	-10	7	-0.5	-2
CCCCn1c(O)c(C(CC)=Nc2ccc(OC)cc2OC)c(=O)[nH]c1=O	18%[38.3 µM]	0.0	-6	-2	0.3	-2
